Assay outcomes from PubChem.
Sa ugtP lethal = compounds lethal to S. aureus RN4220 ugtP deletion mutant; AID 1259309; growth inhibition, % (no concentration beside the values); OD600 growth, 16 h; some inactives read as strong as hits; 330,000 tested, 0.54% active;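 active means z-score under -3 and OD600 up to 0.15 on both plates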;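 further: plate controls were untreated wells for no effect and antibiotic for full effect; wells of about 80 µL received 100 nL stock; the first replicate is given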
Autofluor counter = compound fluorescence in toxin protease inhibitor counterscreen; compound autofluorescence counterscreen, microsphere flow cytometry; hits give high values; fluorescence intensity (test concentration not listed); AID 624483; 360,000 tested, 3.1% active;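 active means at least 3 SD above the mean of all compounds, about 16000 in these data; inconclusive means too few beads counted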;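 further: 100 nL of 1 mM stock went into each well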
Mtb hypoxia rep = Mtb hypoxia fluorescent reporter inhibition; M. tuberculosis hypoxia-regulated fluorescent reporter, fluorescence; fluorescence inhibition, % (test concentration not listed); 300,000 tested, 0.1% active; AID 1159583;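 active means 35 to 45% if threefold the growth effect, above 45% if 1.5-fold the growth effect; inactive means the rest, general growth blockers included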;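 further: wells of about 50 µL received 100 nL stock; 0% = vehicle wells and 100% = reference inhibitor wells; whole bacteria with a GFP reporter of the hypoxia response; strong numbers were not always called active; many hits fall short of the cut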
PrP 5UTR inh = suppresses PrP 5' UTR mRNA reporter expression. 340,000 tested, 0.35% active. AID 488862. inhibition, % (test concentration not listed). cell-based PrP 5' UTR mRNA reporter, plate reader;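 active means every replicate at 50% or more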;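 further: 0 = median of the neutral control wells; tested in H4 reporter cells; numbers are from one replicate; inactives centre near -14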
Sa RN4220 lethal = S. aureus RN4220 growth inhibition; inhibition, % (no concentration beside the values); OD600, 16 h; 330,000 tested, 0.33% active;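 active means z-score of -3 or lower and OD600 up to 0.18 on both plates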;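 further: plate controls were untreated cells for no effect and reference antibiotic for full effect; stock transfer was 100 nL into about 80 µL; one replicate is shown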
BJeLR viability = kills HRASV12-expressing BJeLR cells. 300,000 tested, 0.17% active. inhibition, % (test concentration not listed). BJeLR (HRASV12) viability, CellTiter-Glo ATP luminescence, 48 h; reference of the scale not given here;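 active means replicate mean above 50%; inconclusive means above 50% but judged a plate artefact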;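 further: 50 nL library stock added to about 25 µL; numbers are from one replicate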
Mtb hypoxia rep growth = also measured in Mtb hypoxia rep; calls as there; growth inhibition, %; measured here: M. tuberculosis growth (absorbance);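 0% = vehicle and 100% = reference antibiotic; read after six days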
Numbers without * were called inactive; ? = inconclusive; . = no result given.

Under each structure – Sa ugtP lethal	Autofluor counter	Mtb hypoxia rep	Mtb hypoxia rep growth	PrP 5UTR inh	Sa RN4220 lethal	BJeLR viability
COc1ccc2cc([C@H](C)C(=O)O)ccc2c1
    .	4276	.	.	-18	.	2
O=C(COc1cc(Cl)ccc1Cl)Nc1nnc(CC(=O)N2CCOCC2)s1
    -4	2410	.	.	-20	-1.3	.
COc1ccc(CCNc2ncccc2C#N)cc1OC
    -3	5864	-5	5	-42	6.9	5
COC(=O)CSc1nc2c(c(=O)n(C)c(=O)n2C)n1CCCc1ccccc1
    4	?	-10	-3	2	16	0
CC(Oc1cccnc1[N+](=O)[O-])C(=O)N1CCc2ccccc21 (stereo unspecified)
    10	3230	8	7	8	-4.2	.
CNC(=S)N/N=C/c1cn(CCOc2ccc(OC)cc2)c2ccccc12
    .	3243	.	.	-10	.	-10
CCOc1ccccc1NC(=O)CCS(=O)(=O)c1cccc2nsnc12
    2	6106	-7	2	-19	2.9	-6
O=C(CCN1CCOCC1)NNC(=S)NC(=O)c1ccc(Br)cc1
    13	4936	-1	0	-20	12	3
O=C(O)c1cc(-c2cccc3ccccc23)nc2ccccc12
    3	3768	4	4	-35	5.3	7
CC(C)Oc1ccc(C(=O)NC2CCCCC2)cc1
    1	2492	.	.	-48	2.4	2
O=C(OCC(=O)N(Cc1ccccc1)C1CCS(=O)(=O)C1)c1cc2c(s1)CCCC2 (stereo unspecified)
    -1	2078	9	8	-10	2.3	-11
CC(=O)/C(N=Nc1cc2c(c([N+](=O)[O-])c1C)C(C)(C)CC2(C)C)=C(\C)O
    89*	.	0	5	.	-2.9	2
O=C1Nc2cccnc2Sc2ccccc21
    3	8461	6	5	-14	4.2	-9
CC(C)Cc1ccc(CN2CCCC(NC(=O)c3ccoc3)C2)cc1 (stereo unspecified)
    10	6090	3	9	-5	-0.4	3
Cn1c(N)c(C(=O)COC(=O)c2ccc(Cl)c(S(=O)(=O)N3CCCC3)c2)c(=O)n(C)c1=O
    13	5301	7	11	-21	5.6	3
CCN(CC)C(=O)Cn1cc(C(=O)C(=O)N2CCN(c3ccc([N+](=O)[O-])cc3)CC2)c2ccccc21
    -1	6812	3	5	-18	3.0	-1
CCOC(=O)C1=C(C)NC(=O)NC1/C(C)=C/c1ccccc1 (stereo unspecified)
    2	15681	8	1	1	7.8	-1
CSc1cccc(NC(=S)N(CCCN2CCC(C)CC2)Cc2cccs2)c1
    -9	4686	-6	-7	-7	-3.7	15
C=CCN(CC=C)Cc1cc(=O)n2c(-c3ccccc3)csc2n1
    5	4302	7	-1	-26	-0.7	7
CC(=NNC(=O)c1ccc(CSc2nncn2C)cc1)c1cccs1
    1	.	5	-1	.	8.0	.

Exported comma-delimited: 2 of the compounds above.
canonical_smiles,Sa ugtP lethal,Autofluor counter,Mtb hypoxia rep,Mtb hypoxia rep growth,PrP 5UTR inh,Sa RN4220 lethal,BJeLR viability
COc1ccc2cc([C@H](C)C(=O)O)ccc2c1,.,4276,.,.,-18,.,2
CCOc1ccccc1NC(=O)CCS(=O)(=O)c1cccc2nsnc12,2,6106,-7,2,-19,2.9,-6

Remaining list, next part.
Under each structure – Sa ugtP lethal	Autofluor counter	Mtb hypoxia rep	Mtb hypoxia rep growth	PrP 5UTR inh	Sa RN4220 lethal	BJeLR viability
COc1cc(OC)nc(NC(=O)COC(=O)C2CCCCC2)n1
    2	4148	8	12	-13	1.7	1
NNC(=O)c1sc(-c2ccc(Cl)cc2)cc1N
    -7	4648	6	-2	-19	4.0	9
COc1ccc(-c2noc(CCC(=O)Nc3cc(Cl)c(OC)cc3OC)n2)cc1
    -13	6112	.	.	-27	-10	-1
CCCOC(=S)N/C(=N\S(=O)(=O)c1ccccc1)c1ccccc1
    .	23253*	.	.	7	.	-1
CSCCNC(=O)c1ccc2nc(Cc3ccccc3F)oc2c1
    7	3664	13	4	-49	3.4	9
CC(=O)Nc1ccc(NC(=S)NC(=O)c2ccc([N+](=O)[O-])c(C)c2)cc1
    13	2507	.	.	-46	4.6	-18
CCOC(=O)C1=C(C)N(C)C(=S)NC1c1ccc(Cl)cc1 (stereo unspecified)
    6	2122	-1	5	-15	9.9	0
O=C(COC(=O)COc1ccc(Cl)cc1)NC1CCCCC1
    10	3530	.	.	-6	-0.4	1
O=C1c2cc(O)c(O)cc2S(=O)(=O)C1c1ccccc1 (stereo unspecified)
    .	3502	.	.	-18	.	-1
CCOC(=O)c1c(C)[nH]c(C)c1C(=O)COC(=O)c1cccc(C)c1O
    -11	9723	6	4	6	5.8	-18
Cc1csc(SCC(=O)N2CCCC2)n1
    -4	4151	.	.	-21	-0.7	-4
N#CCCSCc1ccc(C(=O)O)o1
    0	7385	5	1	-14	-2.0	6
COc1ccc(Cl)cc1S(=O)(=O)N1CCN(C)CC1
    1	5354	.	.	-17	2.0	-2
CCc1ccc(C(=O)NNC(=O)c2ccc(=O)n(C)n2)cc1
    4	5673	4	1	-7	-1.3	1
COc1cc(/C=C/C(=O)O)cc(S(=O)(=O)Nc2cccc(S(=O)(=O)N3CCOCC3)c2)c1OC
    6	5179	4	9	-8	-0.3	13
Cc1csc(C(=O)NCC(=O)NNC(=O)c2cccc(Cl)c2)c1
    -1	5861	0	1	-24	3.5	-17
CCC(C(=O)NCCCc1ccccc1)c1ccccc1 (stereo unspecified)
    6	9543	1	14	-2	-4.1	-3
O=C(N/N=C/c1cccn1-c1ccccc1)c1ccncc1
    .	3034	.	.	-7	.	1
O=C(NN=Cc1ccc([N+](=O)[O-])s1)c1cccc(Br)c1
    2	.	3	13	.	6.8	.
O=C(NCCc1csc(-c2cccnc2)n1)c1ccccc1Br
    1	4846	-9	-4	-8	4.4	-1
COc1cc(/C=C/C(=O)NCC2CCCCC2)cc(OC)c1OC
    0	5321	-11	3	-22	0.5	-9
O=C(CN1CCN(c2ccccc2F)CC1)N1CCc2ccccc21
    7	3826	19	5	-23	3.4	14
O=C(O)CCCn1cc(NC(=O)COc2ccccc2[N+](=O)[O-])cn1
    1	4858	2	7	-24	7.8	-1
O=C1C2CCCN2C(c2ccccc2)N1c1ccc(Cl)cc1 (stereo unspecified)
    3	9217	8	4	-28	3.0	-3
CCN(CC)c1ccc(NC(=O)CN2CCN(CC(=O)Nc3ccc(OC)cc3)CC2)cc1
    3	3684	6	7	-4	1.1	2
CC(C)c1nc(N2CCCC2)c(C#N)c2c1CCCC2
    44	3989	5	10	-7	1.4	10
CC(=O)Nc1cccc(C(=O)NN=Cc2ccc(C)o2)c1
    4	.	-4	3	.	3.6	.
O=C(NCc1ccccn1)c1cc2ccccn2n1
    1	4691	3	-2	-14	8.4	7
COCc1nnc(NC(=O)C2CC(=O)N(C3CCCCC3)C2)s1 (stereo unspecified)
    11	6640	5	6	-6	1.6	10
COc1ccc(-c2nn(-c3ccccc3)cc2CNCCN2CCOC2=O)c(F)c1
    8	2489	4	2	-24	1.5	3
CN(c1ccc(OCC(=O)Nc2ccccc2C(=O)O)cc1)S(=O)(=O)c1ccc(Cl)cc1
    8	3823	12	13	-27	2.4	.
COc1ccc(NC(=O)C2CCN(c3cnccn3)CC2)cc1Cl
    7	5745	1	7	4	2.6	-1
NC(=O)CC(O)c1cccc(Cl)c1 (stereo unspecified)
    5	2971	15	9	-34	7.4	-8
CCCNC(=O)NC(=O)COC(=O)c1ccc(S(=O)(=O)N(C)c2ccccc2OC)cc1
    10	4136	3	-3	-35	11	5
CCN(CC)C(=O)Cn1cc(/C=C(\C#N)C(=O)N2CCN(c3ccccc3)CC2)c2ccccc21
    4	9749	5	8	-12	2.1	8
CCOC(=O)c1c(S(=O)(=O)Nc2ccccc2OCC)c(C)n(C)c1C
    5	6641	7	6	-2	4.0	9
CN(CC(=O)Nc1cccc(F)c1)C(=O)C1CCN(S(=O)(=O)c2ccc3c(c2)OCCO3)CC1
    .	4877	.	.	-33	.	4
CC(=O)c1c(C)nc(Nc2nc3ccccc3s2)nc1C
    -4	4957	7	2	.	7.0	6
N#Cc1c(N=Cc2cccs2)sc2c1CCCCC2
    21	.	5	1	.	15	.
COc1ccc(NC(=O)C(NS(=O)(=O)c2cccs2)C(C)C)cc1Cl (stereo unspecified)
    10	3281	15	8	-26	1.4	-7
CCOc1ccccc1N1CCN(C(=S)NCc2ccco2)CC1
    5	2017	17	3	-20	7.4	5
C/C(N)=C(/C#N)C(=O)COC(=O)CNS(=O)(=O)c1ccc2ccccc2c1
    0	4397	11	-3	-79	4.6	8
Cc1cc(C)cc(NC(=S)NCCN2CCOCC2)c1
    3	4042	.	.	-7	2.4	6
CCOC(=O)C1=C(C)NC(c2cccs2)C(=O)N1 (stereo unspecified)
    -2	2381	-4	-2	-18	-0.2	-3
COc1ccc(S(=O)(=O)Nc2ccc(Cl)cn2)cc1
    .	3481	.	.	-20	.	-9
O=c1[nH]cnc(O)c1C1C=CC=CC=C1
    -1	2889	-2	2	7	2.4	.
Cc1n[nH]c(=S)n1N=Cc1c(O)ccc2ccccc12
    8	.	3	-4	.	4.7	.
O=C(CN1C(=O)COc2ccccc21)NC1CCCC1
    2	3468	-9	5	-16	1.0	2
C[N+](C)(C)CCOP(=O)(O)OP(=O)([O-])OC[C@H]1O[C@@H](n2ccc(N)nc2=O)[C@H](O)[C@@H]1O
    .	5204	.	.	36	.	-3
COc1cc(NC(=O)CN2CCN(CC(=O)Nc3ccccc3OC)CC2)cc(OC)c1
    -3	3302	-9	-2	.	-6.8	-6
Cc1nc2nc[nH]n2c(=O)c1NC(=O)c1c(-c2ccccc2Cl)noc1C
    -4	2069	.	.	-17	1.3	-3
Cc1ccc(C(=O)OCC(=O)Nc2ccccc2C(F)(F)F)cc1S(=O)(=O)N1CCCCC1
    4	5836	-1	1	-32	4.9	.
O=C(Cn1cc(-c2nnnn2-c2ccc(Cl)cc2)c(=O)c2ccccc21)c1ccccc1
    -3	4246	4	-1	0	-0.2	-9
N#Cc1cc([N+](=O)[O-])ccc1NC(=O)COC(=O)c1cnccn1
    1	3648	2	5	-4	4.6	.
CC(=NNC(=O)C1CCCN(S(=O)(=O)c2ccccc2)C1)c1ccccn1 (stereo unspecified)
    -1	.	-6	9	.	4.9	.
COc1ccc(C)cc1Nc1n[n+](-c2ccccc2)c(-c2cccc(Cl)c2Cl)s1
    -4	3757	-2	7	-20	2.5	-3
COc1ccc(-n2cc(C(=O)c3cc(Cl)ccc3O)cc(C#N)c2=O)cc1
    7	2659	9	-3	-29	3.1	6
CCCn1nnnc1NC(=O)COc1ccc(CC)cc1
    -3	2290	0	6	-20	5.2	-6
C/C(=N/Nc1ccnc2cc(Cl)ccc12)c1ccc(N)cc1
    .	4739	.	.	-34	.	15
O=C(NCCc1ccc(Cl)cc1)C12CC3CC(CC(O)(C3)C1)C2
    8	5854	18	11	-23	2.1	-10

Next results.
Under each structure – Sa ugtP lethal	Autofluor counter	Mtb hypoxia rep	Mtb hypoxia rep growth	PrP 5UTR inh	Sa RN4220 lethal	BJeLR viability
COc1ccc(S(=O)(=O)N2CCCN(CC(=O)Nc3cc(NC(C)=O)ccc3OC)CC2)cc1
    2	3437	3	5	-4	6.9	11
COc1ccc(N(C(C)C(=O)NN=C(C)C(C)(C)C)S(C)(=O)=O)cc1 (stereo unspecified)
    3	.	14	5	.	1.2	.
O=C(Nc1cccc(Cl)c1)C1CCCN(C2=NS(=O)(=O)c3ccccc32)C1 (stereo unspecified)
    -3	6149	13	2	-39	2.7	.
COc1ccc(NC(=O)[C@H](C)NC(=O)C2CCN(S(=O)(=O)c3ccc(C)cc3)CC2)cc1OC
    5	5983	7	1	-23	1.2	-12
CCOC(=O)COc1nc(N(C)C)nc(N(C)C)n1
    2	4816	.	.	-14	-2.9	-1
CCN(CC)CCNC(=O)c1cc(Nc2ccc(OC)c(OC)c2)nc2ccccc12
    7	4174	3	1	-2	-3.5	-17
Cc1cc(C)c(NC2=CC(=O)CC(C)(C)C2)c(C#N)c1
    -1	10734	-4	8	-25	-0.5	-6
CCCSc1nc(=O)n2cc(C)ccc2n1
    1	9519	5	5	.	6.1	7
CC(C)(C)CNC(=O)c1cccc2c1C(=O)c1ccc(N3CCCC3)cc1S2(=O)=O
    -16	4481	3	7	-1	-1.0	.
